# Screening results deposited in PubChem by Broad Institute.
# Vaccinia inh: Vaccinia orthopox stage-specific inhibition. Vaccinia-infected cells, mCherry/Venus stage reporter fluorescence; stronger effect = lower value; some inactives read as strong as hits. activity change (mCherry), % (concentration not given with the values). 0.01% of 89,000 active. AID 1053133;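 active means mCherry past -33% and 40 or more points under the early reporter, replicates agreeing; inconclusive means past -33% without that gap or agreement; tested in A549 cells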;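 further: scaled between vehicle wells and reference inhibitor wells; 23 nL library stock went into each well; one replicate is shown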
# Vaccinia inh Venus: second read-out of Vaccinia inh, no call of its own (marks repeat the call); activity change (Venus), %; measured here: Venus reporter, other viral stage;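 negative = less Venus signal; first of two replicates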
# * = called active by the depositor; u = inconclusive; x = not tested or not shown; & = joins results of further samples.
# Fields – Vaccinia inh | Vaccinia inh Venus
- O=C(N[C@@H]1C=C[C@H](CC(=O)N2CCCCC2)O[C@H]1CO)c1ccc2c(c1)OCO2
→ -1 | 13
- O=C(C[C@@H]1CC[C@@H]2[C@H](COC[C@H](O)CN2C(=O)c2ccncc2)O1)NC1CCC1
→ 1 | 8
- CNC[C@@H]1Oc2ccc(NC(=O)NC(C)C)cc2CC(=O)N([C@H](C)CO)C[C@@H]1C
→ 5 | -1
- Cc1ccccc1-c1cnc2c(c1)C(=O)N([C@H](C)CO)C[C@H](C)[C@H](CN(C)C(=O)c1cccnc1)O2
→ 5 | 9
- CC(C)NC(=O)N1[C@H](CO)[C@H](c2ccccc2)[C@@H]1CNCc1ccccc1
→ -8 | -6
- C[C@H](CO)N1C[C@H](C)[C@@H](CN(C)C(=O)Nc2ccc(C(F)(F)F)cc2)Oc2ccc(NS(C)(=O)=O)cc2C1=O
→ 8 | 12
- Cc1ccc(-c2ccc([C@@H]3[C@@H](CO)N4CCCCN(Cc5cncnc5)C[C@@H]34)cc2)cc1
→ -35 | -32
- C[C@H](CO)N1C[C@H](C)[C@@H](CN(C)Cc2ccncc2)Oc2ccc(NC(=O)Nc3ccccc3)cc2C1=O
→ 6 | 9
- O=C(Nc1ccccc1F)N1C[C@H]2[C@@H](c3ccccc31)[C@@H](CO)N2C(=O)C1CCOCC1
→ 11 | -1
- Cc1ccc(S(=O)(=O)N2CC[C@@H]3[C@@H](CO)Nc4ccc(C#Cc5ccc(F)cc5)cc4[C@@H]32)cc1
→ -27 | -24
- C[C@@H]1CN([C@@H](C)CO)C(=O)c2cc(NC(=O)C3CC3)ccc2O[C@H]1CN(C)Cc1ccccc1
→ -6 | 2
- C[C@H]1CN([C@@H](C)CO)C(=O)c2cccc(NC(=O)Nc3ccc(C(F)(F)F)cc3)c2O[C@H]1CN(C)Cc1ccc(C(F)(F)F)cc1
→ -25 | -12
- COc1ccc2c3c(n(C)c2c1)[C@H](CO)N(C(=O)CN(C)C)CC31CCN(C(=O)C2CCC2)CC1
→ -4 | -6
- C[C@@H]1CN([C@H](C)CO)C(=O)c2cc(NC(=O)CCN3CCOCC3)ccc2O[C@H]1CN(C)S(=O)(=O)c1ccc(F)cc1
→ -4 | -3
- COc1cccc(-c2ccc([C@@H]3[C@H](CO)N(C(C)=O)C34CN(C(C)=O)C4)cc2)c1
→ 9 | 15
- CC(C)NC(=O)N1C[C@@H]2[C@H](c3ccccc31)[C@H](CO)N2C(=O)c1ccccn1
→ 18 | 9
- COCCOC(=O)N1C(=O)[C@@]2(c3ccccc31)[C@H](C(=O)N1CCc3cc(OC)c(OC)cc3C1)[C@H]1C(=O)O[C@H](c3ccccc3)[C@H](c3ccccc3)N1[C@@H]2c1ccc(O)cc1
→ 2 | -2
- C/C=C/c1ccc(C2[C@H]3CNC[C@@H]2N3C(=O)Nc2cc(F)ccc2F)cc1 (some centres undefined)
→ 7&7 | 17&-3
- O=S(=O)(Cc1ccccc1)N1CCCCN2[C@H](CO)[C@H](c3ccc(-c4cccnc4)cc3)[C@@H]2C1
→ -2 | -12
- O=C(C[C@@H]1C[C@H]2c3cc(NC(=O)Nc4ccccc4)ccc3O[C@H]2[C@H](CO)O1)NC1CCCC1
→ 7 | 13
- C[C@H]1CN([C@@H](C)CO)C(=O)c2cccc(NS(=O)(=O)c3cccs3)c2O[C@H]1CN(C)Cc1ccncc1
→ 20 | 14
- CC(C)NC(=O)Nc1ccc2c(c1)CC(=O)N([C@H](C)CO)C[C@H](C)[C@@H](CN(C)Cc1ccccc1)O2
→ 2 | -3
- C/C=C/c1ccc([C@H]2[C@@H](CN(C)S(C)(=O)=O)N(C(C)=O)[C@H]2CO)cc1
→ 15 | 11
- COc1ccccc1-c1cn(CC[C@H]2CC[C@H](NC(=O)C3CCCC3)[C@@H](CO)O2)nn1
→ -32 | -27
- COc1ccccc1C#Cc1ccc([C@@H]2[C@@H](C#N)N(C(=O)C3CCCCC3)[C@H]2CO)cc1
→ u | x
- CC(C)NC(=O)N(C)C[C@H]1Oc2ccc(NC(=O)Nc3ccccc3)cc2CC(=O)N([C@@H](C)CO)C[C@@H]1C
→ 17 | 9
- O=C(C[C@@H]1C[C@@H]2c3cc(NC(=O)C4CCC4)ccc3O[C@@H]2[C@H](CO)O1)NCc1ccc(-c2ccccc2)cc1
→ 17 | 12
- O=C(NCC[C@@H]1CC[C@@H](NS(=O)(=O)Cc2ccccc2)[C@H](CO)O1)C1CCCC1
→ -10 | -4
- O=C(C[C@H]1CC[C@@H](NC(=O)c2cccc(F)c2)[C@@H](CO)O1)Nc1nccs1
→ 3 | 2
- CC(C)NC(=O)N1Cc2cc(C(=O)NC3CCC3)nc(-c3cccc(-c4cccnc4)c3)c2[C@H]1CCO
→ 4 | -5

# Some of these compounds in order of molecular weight, ascending.
# Fields – Vaccinia inh | Vaccinia inh Venus
- O=C(NCC[C@@H]1CC[C@@H](NS(=O)(=O)Cc2ccccc2)[C@H](CO)O1)C1CCCC1
→ -10 | -4
- C[C@H](CO)N1C[C@H](C)[C@@H](CN(C)C(=O)Nc2ccc(C(F)(F)F)cc2)Oc2ccc(NS(C)(=O)=O)cc2C1=O
→ 8 | 12
- COCCOC(=O)N1C(=O)[C@@]2(c3ccccc31)[C@H](C(=O)N1CCc3cc(OC)c(OC)cc3C1)[C@H]1C(=O)O[C@H](c3ccccc3)[C@H](c3ccccc3)N1[C@@H]2c1ccc(O)cc1
→ 2 | -2

# Next structures follow.
# Fields – Vaccinia inh | Vaccinia inh Venus
- CO[C@@H](CN(C)C(=O)c1ccc2c(c1)OCO2)[C@@H](C)CN([C@H](C)CO)S(=O)(=O)c1ccc(Cl)cc1
→ -6 | 0
- COc1ccc(NC(=O)Nc2ccc3c(c2)C(=O)N([C@@H](C)CO)C[C@H](C)[C@H](CN(C)S(=O)(=O)c2ccc(F)cc2)OCCCC[C@@H](C)O3)cc1
→ 15 | 10
- COCC(=O)N1[C@H](CO)[C@H](c2ccccc2)C12CN(C(=O)c1cccc(F)c1)C2
→ 12 | 12
- Cc1noc(C)c1NC(=O)N(C)C[C@H]1OCc2ccccc2-c2ccccc2C(=O)N([C@H](C)CO)C[C@@H]1C
→ 29 | 21
- C[C@H]1CN([C@@H](C)CO)C(=O)Cc2cc(NC(=O)Nc3ccccc3)ccc2O[C@H]1CN(C)CC1CCCCC1
→ u | x
- C[C@H](CO)N1C[C@H](C)[C@H](CN(C)S(C)(=O)=O)Oc2c(NS(=O)(=O)c3ccc(Cl)cc3)cccc2C1=O
→ 13 | 4
- CN(C)CC(=O)Nc1ccc2c(c1)[C@H]1C[C@H](CC(=O)NCc3ccc4c(c3)OCO4)O[C@@H](CO)[C@H]1O2
→ 20 | 12
- N#C[C@H]1[C@H](c2ccccc2)[C@@H](CO)N1S(=O)(=O)Cc1ccccc1
→ 8 | 4
- CC(=O)N(C)C[C@H]1Oc2ncc(-c3cncnc3)cc2C(=O)N([C@@H](C)CO)C[C@H]1C
→ 31 | 19
- COc1cccc(S(=O)(=O)N[C@@H]2CC[C@H](CCN)O[C@@H]2CO)c1
→ 15 | 19
- Cc1ccc(-c2cnc3c(c2)C(=O)N([C@@H](C)CO)C[C@@H](C)[C@H](CN(C)C(=O)Cc2ccccc2)O3)cc1
→ -28 | -12
- O=C(C[C@H]1C=C[C@H](NS(=O)(=O)c2ccccc2)[C@@H](CO)O1)NCc1ccncn1
→ 3 | -3
- C[C@@H]1CCCCO[C@H](CN(C)C(=O)c2ccccc2)[C@@H](C)CN([C@@H](C)CO)C(=O)c2cc(NC(=O)NC3CCCCC3)ccc2O1
→ 9 | 3
- O=C(C[C@H]1C=C[C@@H](NC(=O)c2ccncc2)[C@@H](CO)O1)NCC1CC1
→ 4 | 9
- CC(=O)N1CC[C@H]2[C@H](CO)Nc3ccc(-c4ccccc4)cc3[C@H]21
→ 2 | -6
- CC(C)CC#Cc1ccc([C@H]2[C@H](CO)N3C(=O)CN(C(=O)c4ccccn4)C[C@@H]23)cc1
→ -8 | -6
- CNC[C@H]1Oc2c(NS(=O)(=O)c3ccccc3)cccc2C(=O)N([C@H](C)CO)C[C@H]1C
→ -2 | -1
- COc1ccc(CNC(=O)c2cc3c(c(-c4cccc(-c5cccc(C#N)c5)c4)n2)[C@@H](CCO)N([S@](=O)C(C)(C)C)C3)cc1
→ -30 | -8
- O=C(Nc1ccc(F)cc1)N1CCCCN2[C@@H](CO)[C@H](c3ccc(-c4ccncc4)cc3)[C@@H]2C1
→ -20 | -26
- O=C(N[C@H]1CC[C@@H](CCNC(=O)C2CC2)O[C@H]1CO)c1ccccn1
→ 6 | 5
- C[C@H](CO)N1C[C@H](C)[C@@H](CN(C)C(=O)CCC(F)(F)F)OCc2cn(nn2)CCCC1=O
→ 20&6 | 16&2
- O=C(C[C@H]1C[C@H]2c3cc(NC(=O)Cc4ccncc4)ccc3O[C@H]2[C@H](CO)O1)NCc1cccc(F)c1
→ 0 | -2
- CCCC(=O)Nc1ccc2c(c1)C(=O)N(C)C[C@@H](OC)[C@H](C)CN(Cc1ccccc1F)[C@@H](C)CO2
→ -25 | -24
- O=C(C[C@@H]1C=C[C@@H](NC(=O)Nc2cc(F)ccc2F)[C@H](CO)O1)Nc1ccc(-c2ccccc2)cc1
→ -2 | 2
- C[C@H]1CN([C@@H](C)CO)C(=O)c2cccc(NC(=O)Nc3ccccc3)c2O[C@H]1CN(C)Cc1ccc(C(=O)O)cc1
→ 20 | 16
- COc1cc(CN2CC3(CN(S(=O)(=O)c4cccc(F)c4)C3)c3c([nH]c4cc(OC)ccc34)[C@H]2CO)cc(OC)c1
→ -6 | -5
- CN(C)CC(=O)N[C@@H]1CC[C@@H](CC(=O)NCCN2CCCCC2)O[C@H]1CO
→ 22 | 19
- O=C(NC1CCCC1)N1CC(=O)N2[C@@H](CO)[C@@H](c3ccc(-c4cccnc4)cc3)[C@@H]2C1
→ 24 | 13
- CC(C)NC(=O)N(C)C[C@H]1Oc2ccc(NC(=O)Nc3ccc(C(F)(F)F)cc3)cc2C(=O)N([C@H](C)CO)C[C@H]1C
→ 10 | 11
- O=C(C[C@H]1C[C@H]2c3cc(NC(=O)NC4CCCC4)ccc3O[C@H]2[C@@H](CO)O1)NCC1CC1
→ 9 | 2

# Later entries:
Structure	Vaccinia inh	Vaccinia inh Venus
C[C@H]1CN([C@@H](C)CO)C(=O)Cc2cc(NC(=O)Nc3ccc(C(F)(F)F)cc3)ccc2O[C@@H]1CN(C)Cc1ccc(C(F)(F)F)cc1	-27	-9
O=S(=O)(c1ccccc1)N1CCCCN2[C@H](CO)[C@H](c3ccc(C#Cc4cccnc4)cc3)[C@H]2C1	u	x
CO[C@@H]1CC[C@H]2CCOc3c(C#N)cccc3C(=O)N(C)CCCC(=O)N(C)C[C@@H]1O2	8	2
C[C@H](CO)N1C[C@H](C)[C@H](CN(C)C)Oc2ccc(NC(=O)Nc3ccc4c(c3)OCO4)cc2CC1=O	6	-2
Cc1noc(C)c1NC(=O)Nc1cccc2c1O[C@@H](CN(C)Cc1ccc(-c3ccccc3)cc1)[C@H](C)CN([C@H](C)CO)C2=O	2	3
COc1ccc2c3c([nH]c2c1)[C@H](CO)N(C(=O)CN(C)C)CC31CN(Cc2ccccc2)C1	-16	-17
O=C(C[C@H]1CC[C@@H](NC(=O)CC2CC2)[C@H](CO)O1)NCc1ccccc1	6	13
C[C@@H]1CN([C@@H](C)CO)S(=O)(=O)c2ccc(C#CCN(C)C)cc2O[C@H]1CN(C)Cc1ccccn1	-9	-12
COC(=O)C[C@@H]1CC[C@@H]2[C@@H](COc3ccc(NC(=O)c4ccc(C(F)(F)F)cc4)cc3C(=O)N2C)O1	-22	-24
CCCNC(=O)N1CC2(CN(Cc3cccc(F)c3)C2)c2c([nH]c3cc(OC)ccc23)[C@@H]1CO	-28	-29
CC(C)NC(=O)Nc1ccc2c(c1)C(=O)N([C@H](C)CO)C[C@@H](C)[C@@H](CN(C)Cc1ccc(-c3ccccc3)cc1)O2	u	x
Cn1cnc(S(=O)(=O)N[C@H]2CC[C@H](CC(=O)Nc3ccccc3)O[C@H]2CO)c1	15	4
C[C@H](CO)N1C[C@H](C)[C@H](CN(C)Cc2ccccn2)Oc2ncc(-c3ccc(F)cc3)cc2C1=O	-2	3
CC(=O)N1[C@H](CO)[C@H](c2ccc(-c3ccccc3)cc2)[C@H]1CNC(=O)NC(C)C	9	21
N#Cc1ccc(-c2ccc([C@@H]3[C@H](CO)N4C(=O)CNC[C@@H]34)cc2)cc1	8	4
COCC#Cc1ccc2c(c1)O[C@@H](CN(C)Cc1ccccc1)[C@@H](C)CN([C@@H](C)CO)S2(=O)=O	-1	0
Cc1noc(C)c1NC(=O)Nc1ccc2c(c1)C(=O)N([C@H](C)CO)C[C@H](C)[C@@H](CN(C)S(=O)(=O)c1ccc(Cl)cc1)OCCCC[C@@H](C)O2	19	13
C[C@@H]1CN([C@H](C)CO)C(=O)c2cccc(NS(=O)(=O)c3ccccc3)c2O[C@@H]1CN(C)Cc1ccccc1	10	-7
C[C@H](CO)N1C[C@H](C)[C@@H](CN(C)Cc2ccc(Cl)c(Cl)c2)Oc2c(NC(=O)c3ccc(-c4nccs4)cc3)cccc2C1=O	u	x
C[C@H]1CN([C@@H](C)CO)C(=O)c2cccc(NS(=O)(=O)c3ccccc3)c2O[C@@H]1CN(C)Cc1ccc(C(F)(F)F)cc1	-18	-16
C/C=C/c1ccc([C@H]2[C@H](CO)N(C(=O)c3cnccn3)C23CN(C(=O)C2CC2)C3)cc1	6	13
C[C@H](CO)N1C[C@H](C)[C@@H](CN(C)C(=O)Nc2ccccc2)Oc2c(NC(=O)c3nc4ccccc4s3)cccc2C1=O	-1	-14

# Structures listed so far that contain an NH in an aromatic ring:
Structure	Vaccinia inh	Vaccinia inh Venus
COc1cc(CN2CC3(CN(S(=O)(=O)c4cccc(F)c4)C3)c3c([nH]c4cc(OC)ccc34)[C@H]2CO)cc(OC)c1	-6	-5
COc1ccc2c3c([nH]c2c1)[C@H](CO)N(C(=O)CN(C)C)CC31CN(Cc2ccccc2)C1	-16	-17
CCCNC(=O)N1CC2(CN(Cc3cccc(F)c3)C2)c2c([nH]c3cc(OC)ccc23)[C@@H]1CO	-28	-29

# A portion of the library; the hit share may differ from the screen's.
